Bioassay records deposited in PubChem BioAssay by Broad Institute.
c-Myc SMM – binders of human c-Myc, primary screen, biochemical, small molecule microarray, anti-His fluorescence. Myc proto-oncogene protein (Homo sapiens), P01106. His-c-Myc binding. calls only. 17,000 compounds, 1.5% hits. AID 624141, 2012;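 active = spot fluorescence over background with P-value below 7% in all four replicate spots, showing protein binding; compounds were printed on slides so no solution concentration is given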;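 also: score is binary with 100 for all four spots passing and 0 otherwise; about 2 pmol printed per array spot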
STAT3 binder – STAT3 binders, primary screen, biochemical, small molecule microarray, single point, set 2 | 17,000 compounds, 0.2% hits | His-STAT3 binding, anti-His fluorescence | calls only | Signal transducer and activator of transcription 3 (Homo sapiens), P40763;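 active = compounds whose four printed spots each show fluorescence over background unusually high for their array block, chance value under 7%; compounds were printed on slides so no solution concentration is given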;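 also: about 2 pmol printed per array spot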
Target sequence (P40763 whole entry, looked up): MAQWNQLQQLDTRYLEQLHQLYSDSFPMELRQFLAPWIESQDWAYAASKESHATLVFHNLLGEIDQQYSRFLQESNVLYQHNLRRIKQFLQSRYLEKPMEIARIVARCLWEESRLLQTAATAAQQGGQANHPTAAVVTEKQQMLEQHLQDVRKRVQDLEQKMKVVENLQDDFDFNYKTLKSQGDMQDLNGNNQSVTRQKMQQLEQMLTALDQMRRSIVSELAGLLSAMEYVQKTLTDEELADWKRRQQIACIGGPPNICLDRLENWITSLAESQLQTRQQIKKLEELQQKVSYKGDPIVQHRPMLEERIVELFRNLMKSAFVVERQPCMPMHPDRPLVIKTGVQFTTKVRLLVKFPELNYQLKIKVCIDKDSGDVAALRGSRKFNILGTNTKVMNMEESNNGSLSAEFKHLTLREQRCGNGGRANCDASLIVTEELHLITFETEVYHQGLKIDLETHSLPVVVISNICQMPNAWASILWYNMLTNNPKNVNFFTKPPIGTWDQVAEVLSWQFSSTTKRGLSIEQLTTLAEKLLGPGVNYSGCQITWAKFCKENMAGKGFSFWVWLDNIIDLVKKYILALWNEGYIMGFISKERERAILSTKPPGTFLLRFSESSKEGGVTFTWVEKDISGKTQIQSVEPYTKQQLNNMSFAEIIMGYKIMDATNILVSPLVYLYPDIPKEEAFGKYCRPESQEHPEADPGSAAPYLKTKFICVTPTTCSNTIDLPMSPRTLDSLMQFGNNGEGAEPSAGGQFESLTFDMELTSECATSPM
p53 mut binder – binders of human mutant p53, primary screen, biochemical, small molecule microarray, anti-GST fluorescence | mutant tumor protein p53 (GST-tagged), Homo sapiens | small molecule microarray binding | calls only | 17,000 compounds, 0.4% hits;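 active = compounds whose four printed spots each glow above background more than chance allows, each with a p-value under 7%; compounds were printed on slides so no solution concentration is given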;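 also: about 2 pmol printed per array spot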
ID4 binder – binders of human ID4 protein, primary screen, biochemical, small molecule microarray, single point | 31,000 compounds, 1.2% hits | calls only | Flag-ID4 binding, fluorescence F/B | DNA-binding protein inhibitor ID-4 (Homo sapiens), P47928;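 active = spot signal over background at p below 0.07 in all four prints; compounds were printed on slides so no solution concentration is given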;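 also: a binder raises fluorescence above local background on the spot; about 2 pmol printed per array spot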
Target sequence (P47928 whole entry, looked up): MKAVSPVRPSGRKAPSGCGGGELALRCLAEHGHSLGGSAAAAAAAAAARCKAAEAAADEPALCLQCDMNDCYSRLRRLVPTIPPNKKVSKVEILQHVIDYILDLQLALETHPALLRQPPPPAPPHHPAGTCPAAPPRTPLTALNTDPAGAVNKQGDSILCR
Calls only; i = inactive; / = not tested or not shown; + = active, no number. Not all compounds are listed; count on the stated rates, not on these rows.

Under each structure: STAT3 binder | c-Myc SMM | ID4 binder | p53 mut binder
C[C@H](CO)N1C[C@H](C)[C@H](CN(C)CC2CC2)OCCCC[C@H](C)Oc2ccc(NS(=O)(=O)c3ccccc3)cc2C1=O
 : i | i | i | i
Cc1noc(C)c1NC(=O)N(C)C[C@H]1OCCCC[C@H](C)Oc2ccc(NS(C)(=O)=O)cc2C(=O)N([C@@H](C)CO)C[C@@H]1C
 : i | i | i | i
C[C@@H]1CCCCO[C@H](CN(C)C)[C@@H](C)CN([C@H](C)CO)C(=O)c2cc(NS(C)(=O)=O)ccc2O1
 : i | i | i | i
COc1ccc(S(=O)(=O)N(C)C[C@H]2Oc3ccc(NS(=O)(=O)c4cn(C)cn4)cc3CC(=O)N([C@@H](C)CO)C[C@@H]2C)cc1
 : i | i | i | i
C[C@@H]1CN([C@H](C)CO)C(=O)c2cc(NS(C)(=O)=O)ccc2O[C@@H]1CN(C)Cc1ccc(C(=O)O)cc1
 : i | i | / | i
COc1ccc(S(=O)(=O)N(C)C[C@@H]2Oc3ccc(NC(=O)Cc4cn(C)c5ccccc45)cc3C(=O)N([C@H](C)CO)C[C@H]2C)cc1
 : i | i | i | i
OCCSCC(O)CC(O)c1ccccc1 (stereo not drawn)
 : i | i | i | i
COc1ccc(OC)c(C2Nc3nc4ccccc4n3C(C)=C2C(=O)Nc2ccc(C)cc2C)c1 (stereo not drawn)
 : i | i | i | i
COc1ccc([Si](C)(C)[C@@H]2[C@@H](CCO)O[C@]3(C(=O)N(Cc4ccccc4)c4ccc(N5CCC5=O)cc43)[C@H]2C)cc1
 : i | i | i | i
O=C1C=CC(O)(/C=C/C(=O)O[C@@H]2[C@@H](O)[C@H](Oc3ccc(O)cc3)O[C@H](CO)[C@H]2O)C=C1
 : i | i | / | i

Part of the list above, with bars between the fields.
smiles | STAT3 binder | c-Myc SMM | ID4 binder | p53 mut binder
O=C1C=CC(O)(/C=C/C(=O)O[C@@H]2[C@@H](O)[C@H](Oc3ccc(O)cc3)O[C@H](CO)[C@H]2O)C=C1 | i | i | / | i
Cc1noc(C)c1NC(=O)N(C)C[C@H]1OCCCC[C@H](C)Oc2ccc(NS(C)(=O)=O)cc2C(=O)N([C@@H](C)CO)C[C@@H]1C | i | i | i | i

The list continues.
Under each structure: STAT3 binder | c-Myc SMM | ID4 binder | p53 mut binder
COCCOC(=O)N1C(=O)[C@@]2(c3cc(C#CCNC(N)=O)ccc31)[C@H](c1ccccc1OCCO)N1[C@H](c3ccccc3)[C@H](c3ccccc3)OC(=O)[C@H]1[C@@H]2C(N)=O
 : i | i | i | i
O=C(NC1CC1)C1=C[C@@H](C2CC2)C[C@@H](OCCCCO)O1
 : i | i | / | i
CCC[C@H]1CC2=C(C[C@@H](CC)CC3=C1C(=O)OC3=O)C(=O)OC2=O
 : i | i | i | i
O=C(O)CN(CC(=O)O)c1ccc2cccc(O)c2n1
 : i | i | i | i
C[C@@H]1CN([C@@H](C)CO)C(=O)c2cc(NS(=O)(=O)c3cccs3)ccc2O[C@@H]1CN(C)CC1CC1
 : i | i | i | i
C[C@@H]1CCCCO[C@@H](CN(C)C(=O)c2ccccc2)[C@@H](C)CN([C@@H](C)CO)C(=O)c2cc(NS(=O)(=O)c3ccccc3)ccc2O1
 : i | i | i | i
C[C@H](CO)N1C[C@H](C)[C@@H](CN(C)C(=O)Nc2ccccc2)Oc2ccc(NC(=O)Cn3cnnn3)cc2C1=O
 : i | i | i | i
Cc1ccc(C(=O)CSc2nnc(-c3ccccc3[N+](=O)[O-])o2)cc1
 : i | i | i | i
C[C@@H]1CN([C@@H](C)CO)C(=O)c2cccc(NC(=O)c3nc4ccccc4s3)c2O[C@H]1CN(C)S(=O)(=O)c1cn(C)cn1
 : i | i | i | i
COc1cc(/C(C)=C/C(C)CCCC(=O)O)oc(=O)c1C (stereo not drawn)
 : i | i | / | i

Following part.
Under each structure: STAT3 binder | c-Myc SMM | ID4 binder | p53 mut binder
COC(=O)c1cccc(COC(=O)c2cc(=O)[nH]c3ccccc23)c1
 : i | i | i | i
CC(C)NC(=O)N(C)C[C@H]1Oc2ccc(NS(=O)(=O)c3cccs3)cc2CC(=O)N([C@@H](C)CO)C[C@@H]1C
 : i | i | i | i
C[C@H](CO)N1C[C@H](C)[C@H](CN(C)C(=O)Nc2cccc3ccccc23)Oc2ccc(NC(=O)NC3CCCCC3)cc2C1=O
 : i | i | i | i
C[C@H]1CN([C@@H](C)CO)C(=O)c2cc(NC(=O)Nc3ccc4c(c3)OCO4)ccc2O[C@H]1CN(C)C(=O)Nc1ccc(C(F)(F)F)cc1
 : i | i | i | i
C[C@@H]1CN([C@H](C)CO)C(=O)c2cc(NS(=O)(=O)c3ccc(F)cc3)ccc2O[C@@H]1CN(C)S(=O)(=O)c1ccc(F)cc1
 : i | i | / | i
C[C@H](CO)N1C[C@H](C)[C@@H](CN(C)C(=O)Nc2ccc3c(c2)OCO3)Oc2ccc(NC(=O)Nc3cccc4ccccc34)cc2C1=O
 : i | i | i | i
O=C(CCN1C(=O)c2cccc3cccc(c23)C1=O)N1CCN(c2ncccn2)CC1
 : i | i | i | i
COC(=O)c1cc(O)cc(OC)c1C(=O)c1c(O)cc(C)cc1O
 : i | i | i | i
COc1ccc(-c2coc3c(CC=C(C)C)c(O)c(OC)cc3c2=O)cc1
 : i | i | / | i
C[C@@H]1CN([C@H](C)CO)C(=O)c2cc(NC(=O)C3CC3)ccc2O[C@@H]1CN(C)C(=O)Nc1cccc2ccccc12
 : i | i | i | i

Additional entries follow:
Under each structure: STAT3 binder | c-Myc SMM | ID4 binder | p53 mut binder
COC(=O)C1=CO[C@@H](O[C@@H]2O[C@H](CO)[C@@H](O)[C@H](O)[C@H]2O)[C@@H]2[C@@H](C)[C@@H](OC(=O)/C=C/c3ccc(O)cc3)[C@@H](O)[C@H]12
 : i | i | / | i
O=c1c(O)c(-c2ccc(O)cc2)oc2cc(OC3O[C@H](CO)[C@@H](O)[C@H](O)[C@H]3O)cc(O)c12 (stereo partly drawn)
 : i | i | i | i
C[C@@H]1CN([C@H](C)CO)C(=O)c2cccc(NC(=O)Nc3cccc4ccccc34)c2O[C@@H]1CN(C)S(=O)(=O)c1ccc(Cl)cc1
 : i | i | i | i
C[C@@H]1CN([C@H](C)CO)C(=O)Cc2cc(NC(=O)Nc3ccc(F)cc3)ccc2O[C@@H]1CN(C)S(C)(=O)=O
 : i | i | / | i
COc1ccc(S(=O)(=O)Nc2ccc3c(c2)CC(=O)N([C@@H](C)CO)C[C@@H](C)[C@H](CN(C)C(=O)Nc2ccccc2)O3)cc1
 : i | i | / | i
COc1c2occc2c(OC)c2c(=O)cc(CO[C@@H]3O[C@H](CO)[C@@H](O)[C@H](O)[C@H]3O)oc12
 : i | i | / | i
CC(C)NC(=O)Nc1ccc2c(c1)C(=O)N([C@H](C)CO)C[C@H](C)[C@H](CN(C)C(=O)Nc1ccccc1)OCCCC[C@H](C)O2
 : i | i | i | i
O=[N+]([O-])c1cccc(CN(CCO)Cc2ccccc2)c1
 : i | i | i | i
COc1ccc(CN(C)C[C@H]2Oc3ccc(NC(=O)C4CC4)cc3C(=O)N([C@@H](C)CO)C[C@@H]2C)cc1
 : i | i | i | i
COc1ccc(CN(C)C[C@H]2OCCCC[C@H](C)Oc3ccc(NC(=O)Nc4cccc5ccccc45)cc3C(=O)N([C@@H](C)CO)C[C@H]2C)cc1
 : i | i | / | i

Following part
Under each structure: STAT3 binder | c-Myc SMM | ID4 binder | p53 mut binder
CC(=O)Nc1ccc(C(=O)CSc2nnc(C)s2)cc1
 : i | i | i | i
C[C@H]1CCCCO[C@H](CN(C)C(=O)Nc2ccccc2)[C@@H](C)CN([C@@H](C)CO)C(=O)c2cc(NC(=O)Nc3ccccc3)ccc2O1
 : i | i | i | i
C[C@H]1CN([C@@H](C)CO)C(=O)c2cccc(NS(=O)(=O)c3cn(C)cn3)c2O[C@H]1CN(C)C(=O)Nc1ccc(C(F)(F)F)cc1
 : i | i | i | i
CC(C)NC(=O)Nc1ccc2c(c1)C(=O)N([C@H](C)CO)C[C@@H](C)[C@H](CN(C)C(=O)c1ccncc1)OCCCC[C@H](C)O2
 : i | i | i | i
COc1ccc(NS(=O)(=O)c2ccc(NC(=O)c3ccc(Br)cc3)cc2)nn1
 : i | i | i | i
C[C@@H]1CN([C@H](C)CO)C(=O)c2cccc(NC(=O)NC3CCCCC3)c2O[C@H]1CN(C)S(=O)(=O)c1ccccc1
 : i | i | i | i
C[C@@H]1CN([C@H](C)CO)C(=O)Cc2cc(NC(=O)Cc3cn(C)c4ccccc34)ccc2O[C@@H]1CN(C)Cc1ccc(C(=O)O)cc1
 : i | i | i | i
COc1ccccc1CNC(=O)c1ccc(NS(C)(=O)=O)cc1
 : i | i | i | i
NC(=O)NCC#Cc1ccc2c(c1)[C@]1(C(=O)N2)[C@H](C(=O)Nc2nc3ccccc3s2)[C@H]2C(=O)O[C@H](c3ccccc3)[C@H](c3ccccc3)N2[C@@H]1c1ccccc1OCCO
 : i | i | i | i
C[C@@H]1CN([C@@H](C)CO)C(=O)c2cc(NC(=O)CCCN(C)C)ccc2O[C@@H](C)CCCCO[C@H]1CN(C)Cc1ccc2c(c1)OCO2
 : i | i | i | i

Other structures.
Under each structure: STAT3 binder | c-Myc SMM | ID4 binder | p53 mut binder
COc1cc2c(cc1OC)CN(C(=O)[C@H]1[C@@H]3C(=O)O[C@@H](c4ccccc4)[C@@H](c4ccccc4)N3[C@@H](c3ccc(OCCO)cc3)[C@]13C(=O)Nc1ccc(C#CC4=CCCCC4)cc13)CC2
 : i | i | i | i
C/C=C(/C)C(=O)OC1Cc2c(ccc3ccc(=O)oc23)OC1(C)C (stereo not drawn)
 : i | i | i | i
C[C@H](CO)N1C[C@H](C)[C@@H](CN(C)C(=O)Nc2ccccc2)Oc2ccc(NC(=O)Cn3cnnn3)cc2CC1=O
 : i | i | + | i
COC(=O)c1ccc(C(=O)OC)c(NS(=O)(=O)c2ccc3c(c2)OCCO3)c1
 : i | i | i | i
C[C@@H]1CN([C@H](C)CO)C(=O)CCCn2cc(nn2)CO[C@@H]1CN(C)C(=O)C1CCCCC1
 : i | i | / | i
C[C@H]1CN([C@@H](C)CO)C(=O)c2cc(NC(=O)Nc3ccc4c(c3)OCO4)ccc2O[C@@H]1CN(C)C(=O)Nc1ccc(F)cc1
 : i | i | i | i
CC(C)NC(=O)Nc1cccc2c1O[C@H](CN(C)Cc1ccc(Oc3ccccc3)cc1)[C@@H](C)CN([C@H](C)CO)C2=O
 : i | i | i | i
CCc1nc(SCC(=O)Nc2ccc(OC)cc2)c2c3c(sc2n1)COC(C)(C)C3
 : i | i | i | i
CCCCCCCCN1C(=O)C(C(C)=O)=C(C)C1(C)O (stereo not drawn)
 : i | i | i | i
COc1cc(NC(=O)c2ccc(Cn3cc(Cl)cn3)o2)c(C(C)=O)cc1OC
 : i | i | i | i

The list continues:
Under each structure: STAT3 binder | c-Myc SMM | ID4 binder | p53 mut binder
Cc1ccc(-c2nnc(Nc3cccc(O)c3)c3ccccc23)cc1S(=O)(=O)N1CCOCC1
 : i | i | i | i
COc1cccc(-n2nnnc2SCC(=O)Nc2ccccc2)c1
 : i | i | i | i
C[C@H](CO)N1C[C@H](C)[C@@H](CN(C)C(=O)Nc2ccccc2)Oc2ccc(NC(=O)CCC(F)(F)F)cc2C1=O
 : i | i | i | i
CNC[C@H]1Oc2ccc(NC(=O)NC(C)C)cc2CC(=O)N([C@H](C)CO)C[C@@H]1C
 : i | i | i | i
C[C@H]1CN([C@@H](C)CO)C(=O)Cc2cc(NC(=O)CCN3CCOCC3)ccc2O[C@@H]1CN(C)C(=O)Nc1cccc2ccccc12
 : i | i | i | i
O=CNCCc1c[nH]c2ccccc12
 : i | i | i | i
CN(C(=O)C(Cl)Cl)c1ccc(OC(=O)c2ccco2)cc1
 : i | i | i | i
O=C(CNC(=O)c1ccc([N+](=O)[O-])cc1)Nc1cccc(C(F)(F)F)c1
 : i | i | i | i
COc1ccc([Si](C)(C)[C@@H]2[C@@H](CC(=O)N3Cc4ccccc4C[C@H]3CO)O[C@]3(C(=O)N(C)c4c(Br)cc(C)cc43)[C@H]2C)cc1
 : i | i | i | i
C[C@@H]1CN([C@H](C)CO)C(=O)c2cccc(NS(=O)(=O)c3ccc(Cl)cc3)c2O[C@H]1CN(C)C(=O)Nc1ccc(F)cc1
 : i | i | i | i

Next section
Under each structure: STAT3 binder | c-Myc SMM | ID4 binder | p53 mut binder
COc1ccc2c(c1)N(C(=O)CSc1n[nH]c(C)n1)C(C)(C)C=C2C
 : i | i | i | i
C[C@@H]1CCCCO[C@@H](CN(C)S(C)(=O)=O)[C@H](C)CN([C@@H](C)CO)C(=O)c2cc(NS(=O)(=O)c3ccccc3)ccc2O1
 : i | i | i | i
C[C@@H]1CN([C@@H](C)CO)C(=O)c2cc(NS(=O)(=O)c3cccs3)ccc2O[C@H]1CN(C)C
 : i | i | i | i
COc1ccccc1NC(=O)C(C)NS(=O)(=O)c1ccccc1 (stereo not drawn)
 : i | i | i | i
C=C[C@H]1[C@H](O[C@@H]2O[C@H](CO)[C@@H](O)[C@H](O)[C@H]2O)OC=C2C(=O)OCC[C@]21O
 : i | i | i | i
CSc1ccc(C2CN3CCCC3c3ccccc32)cc1 (stereo not drawn)
 : i | i | / | i
